D2 agonist: activates the human D2 dopamine receptor; P14416; DiscoveRx PathHunter D2 beta-arrestin, luminescence, 90 min; 100% = 57 uM dopamine signal; activation, % (test concentration not listed); 0.084% of 360,000 active; AID 624465; in the data active = activation above about 40%; inconclusive = about 15% to 40%; inactive = below about 15%; note: compound concentration not given in the record; the text of the record calls up to 30% inactive
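DiscoveRx PathHunter D2 beta-arrestin cells (2,100/well) attached overnight, then compound-stimulated 90 min at 37 C in HBSS/10 mM HEPES/0.1% Tween-20 buffer; beta-galactosidase complementation read by luminescence after 1 h at ambient temperature. Dopamine 57 uM final (EC100) as control.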
D2 potentiator: human D2 receptor positive allosteric modulation | P14416 | DiscoveRx D2 beta-arrestin cells, luminescence, 90 min; 100% = 57 uM dopamine signal | potentiation, % (no concentration beside the values) | 0.23% of 360,000 active; active = potentiation of 50% or more; inconclusive = 30% to 50%; inactive = 30% or less;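 note: compound concentration not given in the record; tested on top of an EC20 dose of dopamine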
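PathHunter beta-arrestin assay in DiscoveRx D2 cells. Compounds were added with an EC20 of dopamine (50 nM final) for 90 min at 37 deg C. Luminescence was read 1 h after detection reagent, with 57 uM dopamine as the EC100 control.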
TRPML1 agonist: activates the human TRPML1 channel; activation, % (concentration not given with the values); Q9GZU1; 0.12% of 410,000 active; TRPML1-expressing cells, Ca2+ dye fluorescence, FDSS; host cell line not named in the record; reference of the full effect not given here; in the data active = activation above about 50%; inconclusive = about 30% to 50%; inactive = below about 30%; note: 0% is about no effect; the text of the record puts the active cut at 80%
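Cells: TRPML1-DL, 1X Tet inducer, ~16 h at 37 degrees C/5% CO2. Dye: ABD Ca8 no-wash + quencher, 45-90 min RT. Read: 10 s baseline, compound add, 110 s agonist phase; 54-4 EC80 (4uM final), 110 s antagonist phase.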
TRPML1 inh: blocks the human TRPML1 channel; TRPML1-inducible cells, Ca2+ dye fluorescence, FDSS; stronger effect = lower value; inhibition of EC80 agonist-evoked calcium signal; 0.02% of 390,000 active; AID 624415; activity change, negative = inhibition, % (test concentration not listed); Q9GZU1; in the data active means activity change below about -50%; inconclusive means about -30% to -50%; inactive means above about -30%;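 note: stimulus is agonist 54-4 at its EC80 concentration; % is set by controls: 0 for no effect and ±100 for the full control effect; compound concentration not given in the record; the text of the record puts the active cut at -80%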
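Calcium fluorescence in TRPML1-DL cells induced overnight with Tet: a 110 s read after compound pin addition, then a 110 s antagonist read after challenge with 54-4 at 4 uM final (EC80).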
PINK1 modulator: PINK1 expression modulation | PINK1 immunofluorescence, high-content cytometry, 24 h | Potency, µM (titrated, usually from 76.6 µM), for inactives: at the highest dose activation (PINK1 increase), hits mostly activators | 0.2% of 410,000 active; active = well fitted activation curve with a large enough effect; inconclusive = small, poorly fitted or top-dose-only effect; inactive = flat fitted curve, though single readings scatter; cell line not stated here;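 note: potency is the fitted concentration of half-maximal effect; % of control where 0% means no effect; nearly all actives have a fitted effect of over 65% in size; a mitochondrial uncoupler was the plate control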
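Stable cell line treated 24 h with compounds at 5 concentrations (CCCP controls), then fixed and immunostained for PINK1 plus nuclear and cell stains; PINK1 immunofluorescence quantified by laser-scanning microplate cytometry.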
Six1-Eya2 inh: inhibitors of human Six1/Eya2 interaction; Q15475+O00167; AlphaScreen GST-Six1/His-Eya2 binding, biochemical; stronger effect = lower value; control for the full effect not named in the record; activity change, % (test concentration not listed); AID 651725; 0.56% of 360,000 active; in the data active = activity change below about -65%; inconclusive = about -30% to -65%; inactive = above about -30%; note: % is set by controls: 0 for no effect and ±100 for the full control effect; compound concentration not given in the record
Target sequence (O00167 whole entry, looked up): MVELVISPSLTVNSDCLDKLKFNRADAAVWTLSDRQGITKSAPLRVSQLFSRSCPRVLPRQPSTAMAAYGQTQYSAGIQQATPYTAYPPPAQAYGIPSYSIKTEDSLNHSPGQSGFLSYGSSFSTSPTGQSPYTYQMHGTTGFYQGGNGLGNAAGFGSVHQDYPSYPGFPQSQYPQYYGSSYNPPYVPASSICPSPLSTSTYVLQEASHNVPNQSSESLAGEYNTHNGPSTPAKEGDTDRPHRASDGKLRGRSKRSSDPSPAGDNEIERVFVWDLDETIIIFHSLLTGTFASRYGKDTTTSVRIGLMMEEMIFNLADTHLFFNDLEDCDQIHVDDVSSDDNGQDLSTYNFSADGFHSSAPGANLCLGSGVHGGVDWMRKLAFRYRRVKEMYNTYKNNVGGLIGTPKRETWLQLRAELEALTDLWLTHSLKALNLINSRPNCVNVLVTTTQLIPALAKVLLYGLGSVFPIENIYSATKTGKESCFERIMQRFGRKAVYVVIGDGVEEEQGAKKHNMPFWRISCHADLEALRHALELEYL
Target sequence (Q15475 whole entry, looked up): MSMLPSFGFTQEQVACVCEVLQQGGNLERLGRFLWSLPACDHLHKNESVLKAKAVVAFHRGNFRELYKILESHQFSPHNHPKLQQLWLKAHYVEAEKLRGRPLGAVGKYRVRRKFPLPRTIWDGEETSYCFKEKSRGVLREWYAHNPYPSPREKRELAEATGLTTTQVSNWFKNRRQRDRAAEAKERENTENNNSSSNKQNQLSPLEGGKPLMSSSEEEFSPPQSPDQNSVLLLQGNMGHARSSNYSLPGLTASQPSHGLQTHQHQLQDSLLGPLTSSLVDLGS
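Six1/Eya2 binding was read as AlphaScreen signal after compounds were pinned into GST-Six1 plus His-tagged Eya2 (5X stock 250/500 nM) in pH 8.0 Tris/NaCl/TCEP buffer, beads added, then incubated 1 h, 37 C, dark.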
The depositor's hits bear a star; ? = inconclusive; . = no result given.

SMILES	D2 agonist	D2 potentiator	TRPML1 agonist	TRPML1 inh	PINK1 modulator	Six1-Eya2 inh
Cc1c(-c2ccccc2)nc2ccccc2c1C(=O)OCC(=O)Nc1ncc(C(F)(F)F)cc1Cl	0.7	-6	0.8	-17	-0.9%	2
O=C(NC1(C(F)(F)F)C(=O)Nc2c1c(=O)[nH]c(=O)n2-c1ccccc1)c1ccccc1Cl (stereo unspecified)	.	.	-0.6	20	-0.2%	.
O=C(COC(=O)c1cc(=O)[nH]c2ccccc12)NC1CCCC1	2.1	-5	-0.6	21	-1.7%	10
CC(Sc1nnc(N)s1)C(=O)NCc1ccc2c(c1)OCO2 (stereo unspecified)	-3.9	-6	-0.9	14	-0.2%	1
CCN1C(=O)[C@H]2[C@@H](c3ccc(C(F)(F)F)cc3)N[C@]3(CCCN(Cc4ccc(Br)cc4)C3=O)[C@H]2C1=O	-9.4	-5	0.9	51	1.7%	4
O=C(c1cc(COc2cccc(C(F)(F)F)c2)on1)N1CCCC1	-0.1	-12	-0.7	16	-0.8%	-1
Cc1nc(N2CCN(c3ccccc3)CC2)[nH]c(=O)c1C	3.1	-3	1.1	-5	4.7%	-8
CN1CCCNc2nc3ccccc3nc21	-1.5	-5	-0.1	11	0.7%	1
CN(CCc1ccccc1)C(=O)c1cccc(NC(=O)Cc2cccc(NC(=O)C3CCN(C(=O)C4CCCCC4)CC3)c2)c1	1.0	1	0.9	2	-0.6%	-7
Cc1ccc(NC(=O)c2cnccn2)c(C)c1	1.2	2	.	.	0.5%	-3
COc1ccc(NC(=O)Nc2ccc3c(c2)C(=O)N([C@H](C)CO)C[C@H](C)[C@@H](CN(C)C(=O)Nc2ccc4c(c2)OCO4)O3)cc1	-1.8	-3	1.2	-16	0.6%	-11
CCCCC(=O)Nc1ccc(C(=O)OC2CCCCC2)cc1	-1.9	-9	1.7	-8	17%	11
CC(C)CCN1CCC(CN2CCNC(=O)C2=O)CC1	-1.1	9	-0.2	14	0.0%	2
O=C(NCCc1ccccc1)C1(c2ccccc2)CC1(Cl)Cl (stereo unspecified)	-3.1	11	1.1	10	2.1%	2
Cc1nn(C)c(C)c1S(=O)(=O)N1CCC(C(=O)Nc2ccc3c(c2)OCCO3)CC1	2.5	-2	-0.3	-6	0.1%	-2
CN(C1CCCCC1)S(=O)(=O)c1cccc(C(=O)Nc2ccccn2)c1	0.5	-2	2.6	11	1.1%	4
O=C(c1ccc2c(c1)CCN2S(=O)(=O)c1ccc(Cl)cc1)N1CCN(c2ccccc2F)CC1	.	.	0.1	5	0.3%	.
O=C(N1CCOCC1)N1CCN(c2ccccc2F)CC1	-4.2	8	-0.7	-4	-1.0%	-1
COc1ccc(-c2nn(CCC(=O)O)cc2/C=C2\SC(N)=NC2=O)cc1OC	-0.2	-12	1.0	4	-0.6%	-11
Cc1ccc2cc(C(c3nnnn3CC3CCCO3)N3CCCC4(CCCCC4)C3)c(=O)[nH]c2c1 (stereo unspecified)	-0.8	-16	0.0	-11	6.0%	8
COc1ccc(-n2c(O)c(C=Nc3ccccc3)c3ccccc3c2=O)cc1	-3.5	4	0.2	-17	1.5%	0
CSc1nnc(-c2cccc(NC(=O)c3ccccc3)c2)n1C	-7.2	-7	-0.2	-6	-0.9%	0
COc1ccc(C(=O)Oc2cc(N)n(S(=O)(=O)c3ccc(C)cc3)n2)cc1	-9.5	-12	-1.2	-1	6.8%	-15
COc1cc(CNc2ncn[nH]2)ccc1OCc1cccc(C)c1	-1.9	-7	-0.6	5	0.4%	-1
CC1CCc2onc(C(=O)Nc3ccc(Cl)cc3)c2C1 (stereo unspecified)	.	.	0.5	-7	25%	.

Shown field by field: part of the list above
O=C(c1cc(COc2cccc(C(F)(F)F)c2)on1)N1CCCC1
  D2 agonist: -0.1
  D2 potentiator: -12
  TRPML1 agonist: -0.7
  TRPML1 inh: 16
  PINK1 modulator: -0.8%
  Six1-Eya2 inh: -1
Cc1nc(N2CCN(c3ccccc3)CC2)[nH]c(=O)c1C
  D2 agonist: 3.1
  D2 potentiator: -3
  TRPML1 agonist: 1.1
  TRPML1 inh: -5
  PINK1 modulator: 4.7%
  Six1-Eya2 inh: -8

(continued)
SMILES	D2 agonist	D2 potentiator	TRPML1 agonist	TRPML1 inh	PINK1 modulator	Six1-Eya2 inh
COc1ccc2[nH]c3c(c2c1)CCN1C(=O)N([C@@H](C)C(=O)NCc2ccccc2OC)C(=O)[C@]31C	12	1	.	.	0.5%	-14
CCc1ccc(NC(=O)C2=CC(c3ccc4c(c3)OCO4)=NS(=O)(=O)N2C)cc1	.	.	1.5	1	-1.3%	.
CCC(C)NC(=O)c1cccc(OCc2c(C)noc2C)c1 (stereo unspecified)	-2.6	-9	0.7	-11	2.4%	1
Cc1ccc(NC(=O)/C(C#N)=C/c2ccccc2C(F)(F)F)cc1	-1.9	0	0.1	-2	8.6%	6
O=[N+]([O-])c1ccc(Sc2n[nH]c(-c3ccncc3)n2)nc1	-6.4	0	1.8	-3	-0.1%	5
Cc1ccc(-c2noc(CCC(=O)NCc3ccc4c(c3)OCO4)n2)cc1	-3.8	-8	1.5	6	5.5%	-2
COc1ccc(NC(=O)c2ccco2)c(NC(=O)c2ccc([N+](=O)[O-])cc2)c1	4.3	-5	0.8	29	10%	3
Cc1cccc(OC(C)C(=O)N2CCN(Cc3ccc4c(c3)OCO4)CC2)c1 (stereo unspecified)	0.6	-18	-0.1	9	-1.3%	12
COc1ccccc1C(=O)N/N=C(\C)CC(=O)Nc1ccccn1	-2.0	-6	0.4	5	3.1%	-10
O=C(/C=C/c1ccccc1Cl)N1CCC(c2nc3ccccc3o2)CC1	.	.	6.1	15	0.0%	.
Cc1ccc(F)c(S(=O)(=O)NC(=O)C2(C)CCN2C(=O)C2(c3ccc(Cl)cc3)CC2)c1 (stereo unspecified)	4.6	3	-0.5	.	2.0%	24
CC1(C(=O)Nc2ccc(Cl)c(Cl)c2)CCN1Cc1cc2ccccc2o1 (stereo unspecified)	-2.7	-1	-0.3	.	0.1%	-2
Cc1cccc(N/C(N)=N/c2nc(C(F)(F)F)cc(C(F)(F)F)n2)c1	0.0	1	0.7	-4	10.0%	1
O=C(Oc1ccc(N2C(=O)CCC2=O)cc1)c1ccco1	1.7	-15	0.9	16	-1.0%	-14
Cc1ccc(-n2c(SCc3ccccc3F)nc3[nH]ncc3c2=O)cc1C	.	.	1.6	?	2.0%	.
Cc1nc2c(C(=O)NCCC(C)C)c[nH]n2c(=O)c1Cl	3.5	0	4.2	46	-0.1%	1
COCCN(C(=O)CSc1nnc(-c2cccc(F)c2)n1N)c1c(N)n(Cc2ccccc2)c(=O)[nH]c1=O	2.2	0	1.5	-25	-3.4%	4
COc1ccc(Cc2nnc(SCC(=O)N3CCCC(C)C3)o2)cc1 (stereo unspecified)	0.3	-12	0.0	3	0.9%	21
COc1ccc2cc3cc(C(=O)N4CCN(C5CCCCC5)CC4)oc3nc2c1	3.0	-6	-0.7	9	0.7%	0
COCCCNC(=O)/C(C#N)=C/c1c(N2CCN(C)CC2)nc2ccccn2c1=O	-1.1	-7	0.3	0	2.0%	6
COc1cccc(C(C)(O)c2nc(-c3cnn(C)c3)cs2)c1 (stereo unspecified)	-4.3	-6	-0.5	.	2.2%	-2
CC(C)(O)c1[nH]c2ccc(C#N)cc2c1C(C)(C)O	-2.1	-4	-0.2	-8	0.0%	0
COc1ccc(OC)c(Nc2nc(N)c([N+](=O)[O-])c(NCc3ccccc3)n2)c1	1.9	-4	-0.3	4	11%	5
COC(=O)c1c(N)c(C#N)c2n1CCCCC2	-2.6	-3	-0.3	-1	8.9µM*	-2
Cc1cc(=O)[nH]c(N/N=C/c2ccco2)n1	-6.0	5	0.1	10	2.4%	-15

In a second layout: entries from further up
Order of results: D2 agonist | D2 potentiator | TRPML1 agonist | TRPML1 inh | PINK1 modulator | Six1-Eya2 inh
- COCCCNC(=O)/C(C#N)=C/c1c(N2CCN(C)CC2)nc2ccccn2c1=O
    -1.1 | -7 | 0.3 | 0 | 2.0% | 6
- COc1cccc(C(C)(O)c2nc(-c3cnn(C)c3)cs2)c1 (stereo unspecified)
    -4.3 | -6 | -0.5 | . | 2.2% | -2
- CC(C)(O)c1[nH]c2ccc(C#N)cc2c1C(C)(C)O
    -2.1 | -4 | -0.2 | -8 | 0.0% | 0
- COc1ccc(OC)c(Nc2nc(N)c([N+](=O)[O-])c(NCc3ccccc3)n2)c1
    1.9 | -4 | -0.3 | 4 | 11% | 5
- COC(=O)c1c(N)c(C#N)c2n1CCCCC2
    -2.6 | -3 | -0.3 | -1 | 8.9µM* | -2

Continuation:
SMILES	D2 agonist	D2 potentiator	TRPML1 agonist	TRPML1 inh	PINK1 modulator	Six1-Eya2 inh
COc1ccc(CCN(C(=O)C(F)(F)F)C(C(=O)NC2CCCCC2)c2ccc(C)s2)cc1OC (stereo unspecified)	-3.1	-9	-0.5	2	.	2
CC(C)N(CCn1cnc2c([nH]c3ccccc32)c1=O)C(C)C	-5.1	-9	.	.	0.5%	-1
CCn1cc(CNC(=S)Nc2cccc3ccccc23)cn1	3.6	-5	0.8	-8	0.3%	3
CSc1ncccc1C(=O)OCC(=O)N(C)C	-2.6	3	-1.4	4	-0.3%	8
CCOc1ccc(Nc2ncnc3scc(-c4ccc(OC)cc4)c23)cc1	.	.	-0.5	31	0.3%	.
O=C(NCCN1CCCCC1)c1ccc(Oc2cc(Cl)cc(Cl)c2)o1	-0.8	-13	1.1	-4	0.3%	-9
CN(C)S(=O)(=O)c1ccc(SCC(=O)N2CC(=O)Nc3ccccc32)nc1	0.8	-1	-0.7	-16	0.1%	-2
CC(=O)N1c2ccc(S(=O)(=O)NCCC(=O)Nc3ccc(F)cc3)cc2CC1C (stereo unspecified)	1.6	-13	0.4	19	-1.3%	4
Cc1ccc(N2CC(C(=O)Nc3ncc([N+](=O)[O-])s3)CC2=O)cc1 (stereo unspecified)	-5.0	-12	0.8	-6	9.5%	12
C=CCN1CCCC1CNC(=O)c1cc2[nH]nnc2cc1OC (stereo unspecified)	-2.7	-31	0.7	14	0.6%	2
Cc1ccc(OC(C)C(=O)Nc2ccc(S(=O)(=O)N3CCOCC3)cc2)cc1 (stereo unspecified)	-1.2	-6	6.8	4	-1.1%	-8
COc1ccc(C(=O)OCC(=O)NC2CCCCCC2)c(OC)c1	2.5	-1	-0.2	3	4.6%	-5
NC(=O)CC(NC(=O)Cc1cccc2ccccc12)c1ccc(NCCc2ccccc2F)c([N+](=O)[O-])c1 (stereo unspecified)	-2.3	-15	-1.2	-7	6.8%	3
C=CC[C@H](CC(=O)NCCO)C(=O)N[C@H](COC(=O)[C@H](CC=C)CC(=O)OC(C)(C)C)Cc1c[nH]c2ccccc12	6.2	.	-0.3	-6	1.2%	-4
C#Cc1ccc([C@H]2C=C(C(=O)OCC=C)O[C@@H](OCC)[C@@H]2CCCO)cc1	4.4	?	0.8	10	0.6%	1
Nc1nc(-c2ccc(F)cc2)cs1	-3.2	-7	-0.2	23	0.8%	2
COC(=O)C1CC(=O)N(Cc2ccccc2)C1 (stereo unspecified)	2.1	-10	0.1	0	-2.7%	6
OC(c1ccco1)c1nc(-c2ccc(F)c(Cl)c2)cs1 (stereo unspecified)	7.9	8	-0.4	.	0.5%	2
COc1ccccc1OCCNC(=O)Cc1ccc(S(=O)(=O)N2CCOCC2)s1	-4.1	-10	0.7	16	-6.2%	12

Random draw from the library. Share with any hit: about 1%.
